Screening results as filed in PubChem BioAssay.
VACV Venus inh = vaccinia inhibition (Venus reporter); Vaccinia virus Venus reporter expression, fluorescence; Potency, µM (titrated, usually from 36.5 µM), for inactives: at the highest dose activity change, negative = inhibition, actives largely listed as inhibitors; 330,000 tested, 0.46% active; AID 720580; active means well fitted inhibition curve with a large enough effect; inconclusive means small, poorly fitted or top-dose-only effect; inactive means no such curve, though single readings can be large or run the other way; tested in A549 cells; note: nearly all actives have a fitted effect of over 30% in size; inactives centre near -10
Vaccinia mCherry = inhibitors of vaccinia virus infection (mCherry reporter signal). Vaccinia virus mCherry reporter infection, fluorescence; about a quarter of the inactives have no number. 310,000 tested, 0.63% active. Potency, µM (series often up to 36.5 µM), for inactives: at the top dose activity change, negative = inhibition, hits mostly inhibitors. AID 720579; active = well fitted inhibition curve with a large enough effect; inconclusive = small, poorly fitted or top-dose-only effect; inactive = no such curve, though single readings can be large or run the other way; tested in A549 cells; note: nearly all actives have a fitted effect of over 35% in size; inactives centre near -10
* marks the source's active call; other numbers are inactive results; i = inactive; u = inconclusive; x = not tested or not shown; & = joins results of further samples; [ ] = remark or other dose. % is set by controls: 0 for no effect and ±100 for the full control effect; potency is the fitted concentration of half-maximal effect.

SMILES	VACV Venus inh	Vaccinia mCherry
COCCn1c(N)c(N(Cc2ccccc2)C(=O)COc2ccc(F)cc2Cl)c(=O)[nH]c1=O	0%	i
NC(=S)NN=Cc1nccc2c(N)cccc12	u	u
CN(c1ccc(C(=O)NCc2cccnc2)cc1)S(C)(=O)=O	u	x
COc1cccc(C(C(=O)NC2CCCCC2)N(Cc2ccco2)C(=O)c2ccccn2)c1 (configuration not stated)	-7%	12%
CCO[C@H]1OC(C(=O)N2CCN(Cc3ccc4c(c3)OCO4)CC2)=C[C@@H](C2CC2)[C@@H]1CCCO	-11%	i
CSc1nnc(-c2ccc(Br)s2)n1C	-15%	-3%
CCSc1ncc(Cl)c(C(=O)Nc2sc3c(c2C(=O)NCCOC)CCCC3)n1	-5%	29%
Cc1cc2oc(=O)cc(CN3CCOCC3)c2cc1C(C)C	-16%	10%
Cc1ccc(NS(=O)(=O)c2ccc(C(=O)N3CC(C)OC(C)C3)cc2)cc1 (configuration not stated)	-5%	i
CN(C(=O)COc1coc(CN2CCN(c3ccccc3)CC2)cc1=O)c1ccccc1	-15%	-10%
O=[N+]([O-])c1ccc(C2=NN(CCO)C(=Nc3ccc(OC(F)(F)F)cc3)SC2)cc1	19%	u
COC(=O)C1=C(c2ccc(S(C)(=O)=O)cc2)C[C@@H]2CC[C@H]1N2C(=O)NC1CCCCC1	-9%	i
C[C@H]1COc2cc(N3CCC[C@H]3CO)ccc2S(=O)(=O)N1	1%	-7%
CNC(=S)NNC(=O)CNc1ccc(C)c(Cl)c1	-17%	-5%
CN(CC(=O)Nc1cccc(F)c1)C(=O)c1ccccc1CCc1ccccc1	u	u
CCCOC(=O)COc1cc(C)cc2oc(=O)c3c(c12)CCC3	3%	-16%
CCC(CC)C(=O)c1c[nH]c(C(=O)NCCOC)c1	-6%	-18%
CCCCCCCCN1C(=O)[C@H](CC(=O)NCCCOC)C[C@@]2(C(=O)OC)CCCCC=C12	1%	13%
O=C1c2ccccc2NC(c2cccc(O)c2)N1c1ccccc1 (configuration not stated)	-8%	u
COc1ccc(/C=C(\C#N)C(=O)ONC2=NCCCCC2)cc1	-21%	-8%
COc1ccccc1/C=C/C(C)=O	-6%	-7%
S=C1NC2=C(C(c3ccc(Br)cc3)N1)N1CCC2CC1 (configuration not stated)	-10%	-16%
O=C(CCSc1ccccc1)NC(=O)COC(=O)C1CCCCC1	-18%	-8%
COC(=O)CSc1ccc(-c2nc3ccc(C)cc3[nH]2)cn1	-15%	x
Cc1noc(C)c1NC(=O)N(C)C[C@H]1Oc2ccc(NC(=O)C3CCCCC3)cc2C(=O)N([C@H](C)CO)C[C@@H]1C	-4%	i

Other compounds:
SMILES	VACV Venus inh	Vaccinia mCherry
CN(Cc1ccc(Cl)cc1)C(=O)c1ccccc1SCC(=O)N1CCCC1	-6%	-19%
Cc1ccc2c(c1)-c1nc(-c3ccc(Cl)cc3)cc(-c3coc4ccccc4c3=O)c1CO2	-5%	-14%
CCc1cccc(C)c1NC(=S)NCc1ccc2[nH]c(C)cc2c1	9%	17%
Cc1ccnc(NC(=O)CCC(=O)N(CC(=O)NCCc2ccccc2)c2ccccc2F)c1	-13%	-18%
COc1cccc(N2CCN(C(=O)c3ccc(CS(=O)c4ccc(C)cc4)o3)CC2)c1 (configuration not stated)	u	u
CC1(c2ccc(OC(F)F)cc2)NC(=O)N(CC(=O)Nc2cccnc2Cl)C1=O (configuration not stated)	-12%	i
Cc1ccccc1CN1CCc2nnc(C(C)NC(=O)C3CCN(C)CC3)n2CC1 (configuration not stated)	0%	i
COc1cc(OC)cc(-c2cc(N3C(=O)Nc4ccccc4N3O)n[nH]2)c1	-11%	i
COc1ccc(N(CCC(=O)O)S(=O)(=O)c2ccc(C)cc2C)cc1	0%	6%
CC(C)CN(C)C(=O)CC1C(=O)NCCN1C (configuration not stated)	7%	i
Cc1ccc(-c2onc(C)c2C)cc1S(=O)(=O)NCc1ccco1	-12%	i
Cc1ccc(C(=O)NC(=S)Nc2ccccc2N2CCOCC2)cc1C	-15%	-23%
O=C(NN1C(=O)c2cc(Br)ccc2NC1c1ccccc1Cl)c1ccncc1 (configuration not stated)	-21%	-2%
CC1CN(C(=O)CCC(=O)N2CCOCC2)c2ccccc2O1 (configuration not stated)	-2%	i
S=C(NCCN1CCOCC1)NC1CCCCC1	-9%	i
O=C([C@@H]1C[C@@H](Sc2nc3ccccc3[nH]2)CN1Cc1ccc(C(F)(F)F)cc1)N1CCN(c2ccccc2F)CC1	0%	-5%
CCN(C#N)c1nc(NC(C)C)nc(NC(C)(C)C)n1	1%	-8%
COc1cccc(-c2nn(-c3ccccc3)cc2C(=O)O)c1	-11%	x
CC(C)N(C#N)c1nc(N2CCOCC2)nc(N2CCOCC2)n1	-16%	-26%
CCc1ccc(C(=O)NNC(=O)C2CCN(c3ncnc4sc(C)c(C)c34)CC2)cc1	u	-18%
CCCCCSc1ncccc1C(=O)O	-12%	-14%
COc1cccc(CCc2nnc(CCC(=O)N3CCN(Cc4ccccn4)CC3)o2)c1	-12%	i
OCc1ccccc1O	-6%	i
O=C(Nc1cc(F)ccc1F)c1ccc2c(c1)nnn2C1CCCC1	-11%	-7%
CSCCC(NC(=O)COc1ccccc1)C(=O)N1CCCC(C)C1 (configuration not stated)	-4%	-19%

Part of the list above in a different format.
Below each compound: VACV Venus inh, Vaccinia mCherry
> Cc1noc(C)c1NC(=O)N(C)C[C@H]1Oc2ccc(NC(=O)C3CCCCC3)cc2C(=O)N([C@H](C)CO)C[C@@H]1C
 : -4%, i
> CN(Cc1ccc(Cl)cc1)C(=O)c1ccccc1SCC(=O)N1CCCC1
 : -6%, -19%
> Cc1ccc2c(c1)-c1nc(-c3ccc(Cl)cc3)cc(-c3coc4ccccc4c3=O)c1CO2
 : -5%, -14%
> CCc1cccc(C)c1NC(=S)NCc1ccc2[nH]c(C)cc2c1
 : 9%, 17%
> Cc1ccnc(NC(=O)CCC(=O)N(CC(=O)NCCc2ccccc2)c2ccccc2F)c1
 : -13%, -18%
> COc1cccc(N2CCN(C(=O)c3ccc(CS(=O)c4ccc(C)cc4)o3)CC2)c1 (configuration not stated)
 : u, u

Next section.
SMILES	VACV Venus inh	Vaccinia mCherry
Nc1nc2ccccc2n1/N=C/c1cccnc1	-11%	-1%
CN(C)S(=O)(=O)c1ccc(NC(=O)c2c(F)cccc2Cl)cc1	-3%	-12%
Cc1ccc(CNC(=O)c2cc3c(=O)n4ccccc4nc3n(Cc3ccco3)c2=N)cc1	-4%	-16%
CC1(C(=O)Nc2cccc3cccnc23)CCN1Cc1csc2ccccc12 (configuration not stated)	-12%	-8%
O=C(COc1ccccc1)N1CCN(C(=O)COc2ccccc2)CC1	-7%	-11%
CC(Oc1ccc(F)cc1)C(=O)N(CCC1=CCCCC1)c1c(N)n(Cc2ccccc2)c(=O)[nH]c1=O (configuration not stated)	u	u
Cc1cc(N2CCOCC2)nc2ccccc12	-19%	i[1.46 µM]
O=C(O)c1ccc(CNCc2ccc(F)cc2)cc1	-14%	-14%
CC1CCCC(C)N1S(=O)(=O)c1ccc(NC(=O)CCn2cnc3ccccc3c2=O)cc1 (configuration not stated)	-14%	-21%
CCOC(=O)C1CCCN(C(=O)c2ccccc2Oc2ccccc2)C1 (configuration not stated)	-10%	-16%
O=C1CCN(Cc2cccc(C(F)(F)F)c2)CCN1Cc1ccccn1	3%	-7%
COc1ccc(-c2ccnc3nc(-n4cccc4)nn23)cc1	-26%	-20%
CC(C)C[C@@H](CN1CCC[C@H]1CN1C(=O)C(=O)NC[C@@H]1Cc1ccc(O)cc1)N1C[C@H](Cc2ccccc2)N(CCc2ccccc2)C(=O)C1=O	-16%	-10%
COc1ccc(-c2cn3cc(Br)cnc3n2)cc1	-14%	-15%
Cc1ccc2c(c1)nnn2C1CCN(S(=O)(=O)c2ccc(C(=O)O)cc2)CC1	5%	8%
COc1cc(CC(=O)OCC(=O)N2CC(C)CC(C)C2)cc(OC)c1OC (configuration not stated)	-17%	-14%
O=C(CNS(=O)(=O)c1ccc(Br)s1)NC1CCCc2ccccc21 (configuration not stated)	-8%	i
COc1cccc(NC(=O)CCc2nnc3n(CC(C)C)c(=O)c4ccccc4n23)c1	-8%	-14%
Cc1ccc(N=C2CCCN2Cc2ccccc2)c(C#N)c1	-17%	-19%
Cc1cc(C)cc(NC(=O)CC(C)n2nc(C)cc2C)c1 (configuration not stated)	-5%	-10%
CC1(C(=O)O)CCCN1C(=O)c1cccc(C(F)(F)F)c1 (configuration not stated)	-2%	6%
O=C(CNC(=O)c1ccc(Cl)cc1)OCC(=O)c1ccc2c(c1)OCCO2	-13%	i
Cc1ccc(S(=O)(=O)N2CCNC(=O)CC2)cc1	-15%	-6%
CCOc1ccc(NC(=O)Cc2cccc3ccccc23)c([N+](=O)[O-])c1	-4%	-18%
O=C(COC(=O)c1cccnc1Cl)Nc1ccc(N2CCOCC2)cc1	11%	-9%

(cont.)
SMILES	VACV Venus inh	Vaccinia mCherry
C=CCOC(=O)C1=C[C@H](c2ccc3c(c2)OCO3)C[C@H](OCCCCO)O1	-4%	i
C[C@H](c1ccccc1)N1C[C@@H](COCc2ccccc2)Oc2cc(N3CC[C@@H](N(C)C)C3)ccc2S1(=O)=O	-6%	4%
CCCN(C(=O)c1cn(C)c(=O)c2cc(OC)c(OC)cc12)c1ccc(CC)cc1	-9%	-18%
COc1ccc(S(=O)(=O)N2CCCC(C(=O)N3CCOCC3)C2)cc1C (configuration not stated)	-16%	x
O=[N+]([O-])c1ccc(N2CCN(CCO)CC2)cc1NCc1ccco1	-17%	-5%
COc1ccc(C(=O)C2CCN(C(=O)c3ccc(OC)cc3)CC2)cc1	u	-23%
CCN(CC)C(=O)CN1C(=O)C(=O)c2ccccc21	-3%	-14%
COc1ccc(CNC(=O)CN(CC2CCCO2)C(=O)CNS(=O)(=O)c2ccc(C)cc2)cc1 (configuration not stated)	-6%	x
CCCCN(CC)CCNC(=O)c1cc2c(=O)n(C)c3ccccc3c2n1C	-22%	-11%
O=C(Nc1cccc(-c2csc(Nc3ccccc3)n2)c1)c1ccccc1	u	5µM*
CCCOc1c(Br)cc(C(=O)NCC)cc1OC	-28%	x
Cc1ccccc1NC(=S)Nc1ccc2[nH]c(=O)[nH]c2c1	6%	-17%
CCOC(=O)COc1ccc(/C=C(\C#N)c2nc3ccc(C)cc3[nH]2)cc1OC	u	u
c1ccc2c(c1)nc(N1CCOCC1)c1nnnn12	2%	20%
Cc1ccc(N2CCOCC2)c2c1C(=O)c1ccccc1C2=O	-22%	-15%
O=C(NC1CCCC1)c1cc2c(ccc3ccccc32)o1	-7%	i
Nc1ccc2nc[nH]c2c1	1%&-17%	-7%

Among those listed so far, 4 contain a CF3 group.
SMILES	VACV Venus inh	Vaccinia mCherry
O=[N+]([O-])c1ccc(C2=NN(CCO)C(=Nc3ccc(OC(F)(F)F)cc3)SC2)cc1	19%	u
O=C([C@@H]1C[C@@H](Sc2nc3ccccc3[nH]2)CN1Cc1ccc(C(F)(F)F)cc1)N1CCN(c2ccccc2F)CC1	0%	-5%
O=C1CCN(Cc2cccc(C(F)(F)F)c2)CCN1Cc1ccccn1	3%	-7%
CC1(C(=O)O)CCCN1C(=O)c1cccc(C(F)(F)F)c1 (configuration not stated)	-2%	6%
